# Screens deposited in PubChem BioAssay by National Center for Advancing Translational Sciences (NCATS).
# hNpr1 antagonist: Natriuretic polypeptide receptor (hNpr1) antagonism - Primary qHTS; hit rate 1.6% among 76,000; HEK293 hNpr1 GloSensor cGMP, ANP-stimulated luminescence; Atrial natriuretic peptide receptor 1 (Homo sapiens), P16066; Potency, µM (top dose mostly 46.3 µM), for the others: at the highest dose activity change, negative = inhibition, most hits filed as inhibitors; active = well fitted inhibition curve with a large enough effect; inconclusive = small, poorly fitted or top-dose-only effect; inactive = no such curve, though single readings can be large or run the other way;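 further: nearly all actives have a fitted effect of over 60% in size; nearly all hits also lower the signal before the agonist is added; a reference antagonist and vehicle were the controls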
# Target sequence (P16066 whole entry, looked up): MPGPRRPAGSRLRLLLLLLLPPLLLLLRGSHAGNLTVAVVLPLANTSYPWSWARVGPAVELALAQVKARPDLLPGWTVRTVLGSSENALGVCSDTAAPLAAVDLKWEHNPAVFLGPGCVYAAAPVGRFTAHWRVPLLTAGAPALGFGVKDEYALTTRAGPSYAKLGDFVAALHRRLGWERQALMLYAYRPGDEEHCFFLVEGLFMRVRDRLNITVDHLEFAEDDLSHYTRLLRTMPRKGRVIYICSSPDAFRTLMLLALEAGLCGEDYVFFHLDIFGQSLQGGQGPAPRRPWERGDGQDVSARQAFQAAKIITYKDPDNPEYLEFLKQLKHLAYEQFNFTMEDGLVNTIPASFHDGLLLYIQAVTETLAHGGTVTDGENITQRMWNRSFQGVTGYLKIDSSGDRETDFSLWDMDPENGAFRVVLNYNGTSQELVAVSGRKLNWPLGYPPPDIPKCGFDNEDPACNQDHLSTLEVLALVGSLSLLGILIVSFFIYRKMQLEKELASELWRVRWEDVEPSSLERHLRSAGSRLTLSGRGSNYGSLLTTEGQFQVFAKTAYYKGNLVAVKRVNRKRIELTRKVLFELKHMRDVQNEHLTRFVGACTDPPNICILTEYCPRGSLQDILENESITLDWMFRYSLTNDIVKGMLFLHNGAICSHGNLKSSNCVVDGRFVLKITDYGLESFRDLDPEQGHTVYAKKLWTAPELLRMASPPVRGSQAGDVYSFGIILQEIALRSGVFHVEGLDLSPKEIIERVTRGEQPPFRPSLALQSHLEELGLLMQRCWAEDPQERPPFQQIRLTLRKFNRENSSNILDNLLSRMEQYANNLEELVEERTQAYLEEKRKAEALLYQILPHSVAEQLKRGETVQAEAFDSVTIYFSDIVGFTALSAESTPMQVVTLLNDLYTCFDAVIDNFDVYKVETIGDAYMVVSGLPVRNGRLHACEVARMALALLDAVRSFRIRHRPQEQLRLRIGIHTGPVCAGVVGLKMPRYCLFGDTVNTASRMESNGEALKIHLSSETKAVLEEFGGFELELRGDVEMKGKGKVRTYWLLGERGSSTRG
#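 Compound pre-incubated 30 min at room temperature on GloSensor-loaded HEK293 cells stably carrying hNpr1 and the pGS-40F cGMP biosensor. Stimulation uses hNppA at 0.1 nM final; luminescence is taken at baseline and 20 min post-agonist.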
# * hit, by the source's call; ? = inconclusive; [ ] = remark or other dose. On the % scale 0 is the no-effect control and ±100 the full control effect; potency means the concentration at half of the fitted maximal effect.
Molecule,hNpr1 antagonist
COC[C@@H]1CN(C(=O)Cc2ccccc2C)C[C@H]1C(N)=O,1%
Cc1noc(-c2nc(-c3ccc4c(c3)OCO4)no2)n1,1%
Cc1ccc(C)c(CN2C(=O)NC3(CCN(C(=O)c4cnccn4)CC3)C2=O)c1,-7%
CN1C(=O)CO[C@H]2CN(Cc3c[nH]c4ccccc34)C[C@H]21,-3%[70.6 µM]
COCCNC(=O)CCCN1C(=O)COc2ccc(C(=O)COc3cc(C)cc(C)c3)cc21,-1%
C=CCCC(CN1CCSCC1)Oc1ncc(CC)cn1 (stereo not drawn),5%
CN1CCN(c2ccc(-c3cc4c(ccn4C)c(C(=O)NCC4CCOCC4)n3)cc2)CC1,2%
O=C1CC(c2noc(-c3cc(F)cc(F)c3)n2)CN1c1ccc(F)c(Cl)c1 (stereo not drawn),-2%
CNC(=O)[C@@H]1C[C@H](Oc2cccnc2)CN1C(=O)CCC1CCCC1,1%
Cc1ccc2nc([C@H]3CCN(C(C)C)C3)[nH]c2c1,28µM*
Cc1ccc(NC(=O)C2CC(=O)N(c3n[nH]c4cccc(F)c34)C2)cc1C (stereo not drawn),-4%
Cn1cc(CN2CCN3C(=O)N(C4CCCCC4)C[C@H]3C2)cn1,2%[70.6 µM]
COCc1noc([C@@H]2CN(C(=O)c3cc(C)oc3C)C[C@H]2COC)n1,5%
CN(C)C[C@H]1O[C@@H](CO)[C@@H](O)[C@H]1N1CCN(c2ccc(F)cc2)CC1,2%
CC(C)Cc1cc(C(=O)NCC2(c3ccccc3F)CCCC2)on1,-2%
COc1ccc(NC(=O)N[C@H]2C[C@@H](C(=O)N[C@H](Cc3c[nH]c4ccccc34)C(N)=O)N(C(=O)C3CC3)C2)cc1,4%
Oc1ccc(-c2nc(C3CC3)nc3c2CN(Cc2ccc(C(F)(F)F)cc2)CC3)cc1,-2%
CN(C)c1ccc(CN2CC[C@H](c3nc4ccc(C(F)(F)F)cc4[nH]3)C2)cc1,?
O=C1Nc2ccccc2CC12CCN(Cc1cccc3ccccc13)C2 (stereo not drawn),-4%[70.6 µM]
O=C(c1nnc(COc2cc(F)cc(F)c2)n1-c1ccccc1)N1CCC[C@@H]1c1nc2ccccc2[nH]1,0%
O=C(Cc1ccccc1)Nc1ccnn1C1CCN(Cc2cccc3nonc23)CC1,-3%
O=C(Nc1ccc(Oc2ccccc2)cc1)O[C@@H]1CO[C@H]2[C@@H]1OC[C@@H]2NCC1CCCCC1,?
O=C(NCC1CCCO1)N1CC(n2cc(C(=O)N3CCOCC3)nn2)C1 (stereo not drawn),-6%
COc1ccc(C)cc1NC(=O)CC1CCCN(c2cnn(CC3CC3)c(=O)c2)C1 (stereo not drawn),-2%
CC1(C)CN(C(=O)c2csc(Cc3ccccc3)n2)CC1(C)O (stereo not drawn),6%
CC(=O)c1ccc(NC(=O)N2C[C@@H]3C[C@H](C2)c2ccc(NC(=O)C4CCCCC4)c(=O)n2C3)cc1,3%
COc1ccc(C(=O)N[C@H]2CO[C@H]3[C@@H]2OC[C@@H]3n2cc(CC3CCCCC3)nn2)cc1,-26%[70.6 µM]
Cc1ncsc1CN1CCCC(c2nc(-c3cccnc3)no2)CCNC(=O)CC1 (stereo not drawn),4%
COCCOC1CCN(C(=O)c2n[nH]c3ccccc23)CC1,0%
COc1cccc(N2CCN(c3nc(C(=O)NCc4cccc(C)c4)cs3)CC2)c1,13µM*
CN(C)C[C@@H]1CN(c2ncccn2)C[C@H]1NS(=O)(=O)c1cc(F)ccc1F,4%
CC(=O)Nc1ccc(NC(=O)Cn2ccn3nc(-c4ccc(F)cc4)c(CO)c3c2=O)cc1,-10%
CCCN1CCC2(CCN(C(C)=O)CC2)Oc2ccccc21,16%[70.6 µM]
Cn1ccnc1CNC(=O)C[C@@H]1C[C@H]2O[C@H](CNC3CCC3)[C@@H](O)[C@H]2O1,3%[70.6 µM]
O=C([C@H]1C[C@H](Oc2ccccc2)CN1S(=O)(=O)c1ccc(F)cc1)N1CCOCC1,0%
CCn1cc(CNc2ncc(C(C)(C)C(=O)O)c(N3CCOCC3)n2)cn1,-2%
COc1ccc(NC(=O)C2(C)CCc3cnc(NCc4ccccc4)nc32)cn1 (stereo not drawn),-1%[70.6 µM]
O=C(Nc1cccc(Br)c1)N1CC2CC(C1)[C@H]1CCCC(=O)N1C2 (stereo partly drawn),5%
CCN(Cc1cccc2nonc12)CC1CCCN(CCc2cccc(OC)c2)C1 (stereo not drawn),-2%
CNC(=O)N1CCC(C2CCN(C(=O)Cc3ccc(F)cc3)C2)CC1 (stereo not drawn),-3%
CCn1cc(S(=O)(=O)NC2CCCN(C3CCCCCC3)C2)cn1 (stereo not drawn),1%
CCOc1ccccc1NC(=O)CCn1ccn2nc3c(c2c1=O)CCCC3,-11%
CCC(=O)N1CCN(C(=O)Cc2ccc(C)c(C)c2)[C@H]2CS(=O)(=O)C[C@H]21,3%
CCN(CC)[C@H]1[C@@H]2OC[C@@H](O2)[C@@H](NCc2ccc(N(C)C)cc2)[C@@H]1O,-1%[70.6 µM]
O=C1CCN(Cc2ccncc2)CCCC(C(=O)Nc2cccc(F)c2)CCN1 (stereo not drawn),-2%
N#Cc1cccc(C(=O)N2C[C@@H](Oc3cccnc3)C[C@H]2C(=O)N2CCOCC2)c1,-3%
O=C(CC1CCN(C(=O)C2CCCCC2)C1)NCc1ccccc1 (stereo not drawn),-7%
CN1CCC2(C1)CN(CC1CC1)c1ccc(C(=O)NC3CC3)cc12 (stereo not drawn),-10%[70.6 µM]
Cc1nc(C2CC(NC(=O)Cn3cc(Cl)c(C)n3)C2)cc(=O)[nH]1 (stereo not drawn),0%
Cc1ccc(C(=O)N2CCN(C(=O)c3nnn4c3COC(c3ccc(F)cc3)C4)CC2)cc1C (stereo not drawn),11µM*

# Next section.
Molecule,hNpr1 antagonist
CN(Cc1cccnc1)Cc1nc(C2(O)CCN(Cc3ccccc3)CC2)cs1,-17%[70.6 µM]
CCNC(=O)c1ccc(CN2C(=O)NC3(CCS(=O)(=O)CC3)C2=O)cc1,?
COc1ccc(S(=O)(=O)N2CC[C@H](NC(=O)Cc3cccs3)C[C@H]2C(=O)N[C@@H](CC2CCCCC2)C(N)=O)cc1,-1%
O=C(NCc1ccncc1)C1Cn2cccc2C(=O)N1Cc1ccccc1 (stereo not drawn),-12%
Cc1ccccc1[C@H]1C[C@@H](O)[C@@H](O)[C@@H]1NS(=O)(=O)c1cccc(C#N)c1,6%[70.6 µM]
CC(=O)N1CCc2cc(S(=O)(=O)CCC(=O)N3CCC(Cc4nncn4CC4CC4)CC3)ccc21,0%
O=C(c1cc(=O)[nH]c(=O)[nH]1)N1CCc2onc(-c3ccccc3F)c2C1,2%
CCCCNC(=O)C1CCN(C(=O)c2ncn3c2COC(c2ccccc2)C3)CC1 (stereo not drawn),2%
Cc1cc(=O)c(C(=O)N2CCCn3nc(CO)cc3C2)cn1C,4%
Cc1ccc(CNC(=O)N2CCCC(Cc3noc(-c4cnccn4)n3)C2)cc1 (stereo not drawn),15%

# Overlap with the part before: 3 compounds; new compounds follow.
Molecule,hNpr1 antagonist
CCCCNC(=O)C1CCN(C(=O)c2ncn3c2COC(c2ccccc2)C3)CC1 (stereo not drawn),2%
Cc1cc(=O)c(C(=O)N2CCCn3nc(CO)cc3C2)cn1C,4%
Cc1ccc(CNC(=O)N2CCCC(Cc3noc(-c4cnccn4)n3)C2)cc1 (stereo not drawn),15%
COCc1nc2nccc(-c3cc(OC)c(OC)c(OC)c3)n2n1,-1%
COC[C@H]1CCCN1C(=O)C[C@@H]1O[C@H](CNC(=O)c2ccco2)[C@@H](O)[C@H]1O,0%[70.6 µM]
CN(C)c1ncnc2sc3c(c12)CCN(Cc1ccncc1)C3,-3%
CC(C)(C)C(=O)N1CC[C@H]2CC(=O)N(C3CCCCC3)CC[C@H]2C1,1%[70.6 µM]
CCc1noc(-c2cccn3c(CNC(=O)c4cccc(Cl)c4)nnc23)n1,-1%
O=C(c1ccc(-c2cccc(F)c2)nc1)N1CCCC(c2ccccc2)CC1 (stereo not drawn),-13%
O=C(N1CCC(c2noc(C3CC3)n2)C1)C1(c2ccccc2)CC1 (stereo not drawn),6%
O=C1COCC2(CN1Cc1ccccc1)CN(c1cccnc1)C2,-2%[70.6 µM]
COCCn1c(CO)nnc1C1CC(NC(=O)c2ccoc2C)C1 (stereo not drawn),-8%
O=S(=O)(NC1CCCc2nc(-c3ccccc3)ncc21)N1CCCC1 (stereo not drawn),1%
COC1CCCN(Cc2cn(-c3ccc(F)cc3)nc2-c2ccccc2Cl)C1 (stereo not drawn),-6%
O=C(CCn1ccn2nc3c(c2c1=O)CCCC3)Nc1ccc(F)cc1F,2%
COc1ccccc1-n1cc(C(=O)NC[C@@H]2C[C@H](F)CN2)cn1,4%
CN1CC2(CCN(Cc3ccccn3)CC2)CC1C(=O)N1CCOCC1 (stereo not drawn),5%
CC(C)NC(=O)N1CCCCCC1CN1CCCC1 (stereo not drawn),-4%
CCc1noc(-c2cn(C3CCN(C(=O)c4cccc(C)c4)CC3)nn2)n1,-4%
CCCNC(=O)CC1COCCN1C(=O)CCc1c(C)nc(=O)[nH]c1C (stereo not drawn),-2%
CCN(CC)Cc1ccc2c(c1)CN(C(=O)N(CC)CC)CCO2,-1%
COCCNC(=O)c1coc(COc2ccc3c(c2)C(c2cccc(F)c2)N(C(=O)C2CC2)CC3)n1 (stereo not drawn),-9%
COc1ccc(-c2nnc3ccc(N(C)Cc4ccccc4)nn23)nc1,-7%[70.6 µM]

# Four compounds picked at random from those above:
Molecule,hNpr1 antagonist
COCc1noc([C@@H]2CN(C(=O)c3cc(C)oc3C)C[C@H]2COC)n1,5%
CCOc1ccccc1NC(=O)CCn1ccn2nc3c(c2c1=O)CCCC3,-11%
CCc1noc(-c2cn(C3CCN(C(=O)c4cccc(C)c4)CC3)nn2)n1,-4%
COc1ccccc1-n1cc(C(=O)NC[C@@H]2C[C@H](F)CN2)cn1,4%

# Returning to the listing with the 4 entries that preceded the break.
Molecule,hNpr1 antagonist
CCCNC(=O)CC1COCCN1C(=O)CCc1c(C)nc(=O)[nH]c1C (stereo not drawn),-2%
CCN(CC)Cc1ccc2c(c1)CN(C(=O)N(CC)CC)CCO2,-1%
COCCNC(=O)c1coc(COc2ccc3c(c2)C(c2cccc(F)c2)N(C(=O)C2CC2)CC3)n1 (stereo not drawn),-9%
COc1ccc(-c2nnc3ccc(N(C)Cc4ccccc4)nn23)nc1,-7%[70.6 µM]
COc1nccc(N2CCC(CC(=O)NCc3ccc(F)c(Cl)c3)CC2)n1,11µM*
O=C(C1CC1)N1CCCC(Cc2noc(-c3ccccc3)n2)C1 (stereo not drawn),4%
COc1cccc(-c2cn3c(n2)N(C(=O)c2cnccn2)CCC3)c1,0%
COc1ccc(C2(C(=O)N3CCC(Cc4nc(-c5ccc(F)cc5)no4)CC3)CC2)cc1,5.6µM*
COc1ccc(-c2ccnc(N[C@H]3CO[C@H]4[C@@H]3OC[C@@H]4NC(=O)NCc3ccccc3)n2)cc1,-3%
COc1ccc(-c2nc3c(c(=O)[nH]2)CCN(C(=O)c2nccc4ccccc24)C3)cc1,-10%
Cc1noc(C)c1-c1ccc2c(n1)CN(Cc1nc3ccccc3s1)C(=O)CO2,-7%[70.6 µM]
COc1cccc(NC(=O)COc2cccc(-c3nnc4n3CCCC4)c2)c1,0%
CCc1nccc(CN2CCC(c3nn(C)c(=O)n3CC)CC2)n1,1%
O=C(Nc1cccc(Cl)c1)[C@@H]1COCC(=O)N1Cc1ccccc1,-9%
O=C1CCN(C(=O)c2cccs2)CCCC(CO)CCN1 (stereo not drawn),0%
CN(C)C(=O)c1ccc(-c2cccc(-c3ccn(CC4CC4)n3)c2)o1,?
Cc1ccsc1-c1nc(CN(C)Cc2noc(C(C)C)n2)c(C)o1,-15%
Cc1ccc(F)cc1CN1CCOc2cc([S+](N)(=O)[O-])ccc2C1,?
CN(C)C(=O)C1CN(C(=O)NCc2ccc(F)cc2)CC12CCOCC2 (stereo not drawn),1%
O=C(COc1ccc(Cl)cc1)N1CCN(c2ccccc2)C(=O)C1,1%
CCOC(=O)C1CCCN(C(=O)C2CC(c3ccc(CC)cc3)CN(C(C)=O)C2)C1 (stereo not drawn),3%
CN(Cc1cnn(-c2ccccc2)c1)Cc1cc2ccccc2[nH]c1=O,5%
CCCNC(=O)N1CC(Oc2ccc(-c3nc(-c4ccccc4)no3)cc2)C1,0.4µM*
CCN(CC)Cc1cnc2c(C(=O)N(CC)CC)cnn2c1,1%
CCCCNC(=O)CCc1cc2cc(OC)ccc2[nH]c1=O,3%
Cc1cc(=O)n(CC(=O)Nc2cccc(C(F)(F)F)c2)c(N2CCN(c3ccccc3)CC2)n1,-11%
O=C1C(N2CCN(S(=O)(=O)c3ccc(Cl)s3)CC2)CCN1Cc1cccnc1 (stereo not drawn),-17%
COc1ccc(S(=O)(=O)Nc2ccc3n(c2=O)C[C@H]2C[C@@H]3CN(C(=O)c3ccccn3)C2)cc1,3%
C=CCC1(C(=O)O)CCCN(C(=O)Cc2c[nH]c(=O)n(C)c2=O)C1 (stereo not drawn),4%

# These rows are one share of the data; count on the stated rates, not on these rows.
